miR-21 FLuc: raises the signal of a miR-21 reporter; HeLa miR-21 FLuc reporter, luciferase, 48 h; Potency, µM (highest dose often 38.3 µM), for the others: top-dose reporter change, positive = more light; 340,000 tested, under 10 active; AID 2288; active = well fitted rising curve with a large enough effect; inconclusive = small, poorly fitted or top-dose-only effect; inactive = no such curve, though single readings can be large or run the other way;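 note: % of control where 0% means no effect; miR-21 action dims this reporter so a rising signal means less miR-21 action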
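Compounds were titrated across several concentrations (up to approximately 40 uM) and incubated 48 hours with HeLa miR-21-FLuc reporter cells (miR-21 target sequence downstream of FLuc, endogenous miR-21). Readout was firefly luciferase luminescence after lytic detection reagent.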
Numbers without * were called inactive; ? = inconclusive.

miR-21 FLuc | Molecule
-6.2% | CC(=O)c1cc(-c2ccc(F)cc2)n(CCC(=O)NCc2ccccc2C)c1C
16.0% | Cc1ccc(-n2ncc(C(=O)NCc3ccccc3C)c2-n2cccc2)cc1
-5.2% | CCOc1cc(C(=O)Nc2c(NC)c3ccccc3oc2=O)cc(OCC)c1OCC
-0.7% | COc1cccc(Nc2nc3ccc(C(=O)c4ccccc4)cc3n3c(C)nnc23)c1
-30.8% | Cc1c(NC(=O)C(F)(F)F)ccc2nc3c(=O)n(C)c(=O)n(C)c3nc12
-8.8% | CCOc1ccc2nc(C)cc(Nc3ccccc3OCC)c2c1
21.9% | CN(C)CCNC(=O)C1CCN(Cc2cc3ccccc3n2Cc2ccccc2)CC1
5.6% | Cc1cccc(C)c1NC(=O)Cn1c(SCC(=O)NCc2ccccc2)nc2ccccc21
1.4% | Cc1nnc(N2C(=O)c3oc4ccccc4c(=O)c3C2c2cccc(OCCC(C)C)c2)s1 (stereo not drawn)
11.0% | O=C(c1ccc2c(c1)N(Cc1cccc(Cl)c1)C(=O)c1ccccc1S2(=O)=O)N1CCC(Cc2ccccc2)CC1
1.4% | CC1=C(c2ccc(F)cc2)S(=O)(=O)N=C1N1CCC(C(=O)NCCc2ccccc2)CC1
-7.9% | COc1ccc(-c2noc(-c3ccc(N4CCN(c5ccccc5)CC4)c([N+](=O)[O-])c3)n2)cc1
0.1% | CCCCN(CC)C(=O)c1cc2c(=O)n3cccc(C)c3nc2n1C
9.4% | COc1ccc(N2CCN(C(CNC(=O)C(=O)NCc3cccnc3)c3cccnc3)CC2)cc1 (stereo not drawn)
0.3% | COc1ccccc1NC(=O)C1CCN(S(=O)(=O)c2cn(C)cn2)CC1
? | CCOC(=O)c1c(C)[nH]c(CCC(=O)NCCCN2CCN(c3cc(C)ccc3C)CC2)c1C
-1.8% | CSc1cccc(Nc2cc(C(=O)NC3CCCCC3)c3ccccc3n2)c1
-8.5% | COc1ccc(C2=NN(C(C)=O)C(c3cn(-c4ccccc4)nc3-c3cccs3)C2)cc1 (stereo not drawn)
-1.3% | Cc1ccc(NC(=O)N2CCC(CN3CCCC3)CC2)c(C)c1
-1.6% | COc1cc(NC(=O)C(CC(C)C)N2Cc3ccccc3C2=O)cc(OC)c1 (stereo not drawn)
-8.7% | Cc1cn(C)c(CC(=O)N2CCN(c3ccccc3F)CC2)c1C(=O)O
-0.2% | CC1CN(C(=O)N2CCC(C(=O)NCCCc3ccccc3)CC2)c2cc(Cl)ccc2O1 (stereo not drawn)
-1.5% | CC(=O)c1ccc(N2CCN(C(=O)c3cc4cc5cc(C)ccc5nc4s3)CC2)cc1
-8.8% | Cc1cc(=O)n2nc(N3CCC(C(=O)Nc4ccc(C)c(Cl)c4)CC3)sc2n1
12.8% | Cc1c(Cl)cccc1-n1ncc(C(=O)Nc2ccc3c(c2)OCCO3)c1C1CCN(C(=O)OC(C)(C)C)CC1

Some of these compounds in order of number of heavy atoms, largest number first.
miR-21 FLuc | Molecule
-0.7% | COc1cccc(Nc2nc3ccc(C(=O)c4ccccc4)cc3n3c(C)nnc23)c1
-1.6% | COc1cc(NC(=O)C(CC(C)C)N2Cc3ccccc3C2=O)cc(OC)c1 (stereo not drawn)
-8.8% | CCOc1ccc2nc(C)cc(Nc3ccccc3OCC)c2c1

Next part.
miR-21 FLuc | Molecule
-5.2% | COc1ccc(NC(=O)Cn2nnc3sc4c(c3c2=O)CCC(C)C4)c(OC)c1 (stereo not drawn)
-5.1% | Cc1nc2ccn(Cc3cccnc3)c(=O)c2cc1C(=O)N1CCN(c2ccc(F)cc2)CC1
-18.1% | CCCCc1nn2c(=O)cc(COC(=O)c3cccc(NC(=O)COc4ccccc4)c3)nc2s1
-4.6% | CCOC(=O)c1ccccc1NC(=O)CSc1ccc(-c2sc(C)nc2C)nn1
8.2% | CCOc1ccc(CCNC(=O)c2cc3sc(CC)cc3n2C)cc1OCC
17.5% | COC(=O)c1c(C)oc2c1cc(NS(=O)(=O)c1c(C)cc(C)cc1C)c1ccccc12
-47.9% | Cc1cccc(NC(=O)/C(C#N)=C/c2ccc(C)o2)c1
-6.9% | CC(=O)c1ccc(NC(=O)CSC2=Nc3ccccc3N=C(c3ccc(F)cc3)C2)cc1
-2.3% | CC1CC(=O)N(CC(=O)Nc2ccc(F)cc2F)c2ccccc2S1 (stereo not drawn)
23.0% | Cc1cc(Nc2ccc(F)cc2)nc(-n2nc(C)cc2C)n1
4.3% | CCOc1c(CC2C(=O)Nc3ccc(Br)cc32)cccc1OC (stereo not drawn)
1.3% | COc1ccc(-c2cc(C(F)(F)F)nc(SCCC(=O)Nc3ccc(OC)c(OC)c3)n2)cc1
0.3% | COc1cc(OC)c(NC(=O)Cn2c(=O)cc(C)c3c(C)nn(-c4ccc(C)cc4)c32)cc1Cl
-2.6% | CCc1ccc(/C=C(/C#N)c2nc(-c3ccc(C)cc3)cs2)cc1
16.3% | COc1ccc(C(=O)N2CCC(c3c[nH]c4ccccc34)(c3c[nH]c4ccccc34)CC2)cc1
-3.1% | COc1ccc(-n2nc(C(=O)Nc3ccc(C(C)=O)cc3)nc2-c2ccccc2)cc1
-6.2% | Cc1cccc(-c2nc(Cn3c(=O)cc(-c4ccccc4)c4c(C)nn(C)c43)c(C)o2)c1
-15.8% | CCc1cccc(CC)c1NC(=O)CCS(=O)(=O)c1ccc(Br)s1
15.2% | COc1ccc(C2c3c(n(C)c4ccccc34)C(=O)N2CC(=O)Nc2ccccc2F)cc1 (stereo not drawn)
11.4% | O=C(Nc1cccc(Cl)c1)c1ccc(F)c(S(=O)(=O)N2CCC3(CC2)OCCO3)c1
-0.9% | CCOC(=O)C1CCN(C(=O)c2ccc3c(c2)sc2nc(-c4ccc(OCC)cc4)cn23)CC1
-6.9% | COc1ccc2c(c1)c1c(c(=O)n(-c3ccc(OC)c(OC)c3)c(=O)n1Cc1ccccc1F)n2C
0.0% | CCOc1ccc(NC(=O)c2c(C)nn(-c3ccc(F)cc3)c2-n2cccc2)cc1
-2.1% | CCOc1ccc(OCC)c(NC(=O)C2CCN(c3nnc(-n4cccc4)s3)CC2)c1
-5.6% | CC(=O)N1c2ccc(S(=O)(=O)N3CCN(c4cc(Cl)ccc4C)CC3)cc2CC1C (stereo not drawn)
-2.6% | COc1ccc(N2CC(NC(=O)/C=C\c3ccccc3)CC2=O)cc1OC (stereo not drawn)
18.6% | CCOC(=O)c1sc2ccccc2c1S(=O)(=O)Nc1ccc(CC)cc1
1.8% | O=C(NCCc1ccccc1)c1ccc2c(c1)N(Cc1ccccc1F)C(=O)c1ccccc1S2=O (stereo not drawn)
0.7% | COc1cccc(CNC(=O)c2c(C)nn(-c3cccc(C)c3)c2-n2cccc2)c1
4.7% | Cc1ccc(NC(=O)CCCn2c(=O)c3cccn3c3ccccc32)c(Cl)c1
-2.3% | O=C(NC1CC(=O)N(c2ccccc2)C1)c1ccc(S(=O)(=O)N2CCOCC2)cc1 (stereo not drawn)
6.3% | CCOC(=O)c1ccc(NC(=O)c2nc(SCc3ccccc3F)ncc2Cl)cc1
-4.3% | Cc1cc(C)cc(NC(=O)CSc2nnc(CNC(=O)c3c(F)cccc3Cl)o2)c1
-5.6% | O=C(COc1ccc(Cl)cc1)NCCc1csc(-c2ccc(F)cc2)n1
-4.0% | CCCCn1cc(S(=O)(=O)c2ccc(C)c(C)c2)c(=O)c2cc(F)c(N3CCN(C)CC3)cc21
-5.9% | COc1ccc(CNC(=O)C(=O)Nc2cc(Cl)ccc2OC)cc1
13.4% | Cc1ccc2c(Sc3ccc(Cl)cc3)c(C(=O)N3CCC(C)CC3)[nH]c2c1
-0.5% | O=C(Nc1nnc(S(=O)(=O)N2CCCc3ccccc32)s1)c1cccc(Cl)c1
-4.1% | COc1ccc(NC(=O)C(=O)NCC(c2ccc3c(c2)OCO3)N2CCN(C)CC2)cc1 (stereo not drawn)
-37.7% | CCCOc1ccc(-c2nc(SCC(=O)c3ccc(Cl)cc3)n[nH]2)cc1
15.8% | Cc1ccc(C(=O)N2CCN(c3cccc(Cl)c3)CC2)cc1-n1c(C)nc2cccnc21
8.6% | CCCn1c(SCc2nc(-c3ccc(OC)cc3OC)no2)nnc1-c1ccc(Cl)cc1
2.2% | CCC1CCCCN1CC(=O)Nc1cc(C)c2c(=O)oc3ccccc3c2n1 (stereo not drawn)
23.4% | Cc1ccc(-n2nc(C)c3c(C(=O)NCCc4ccc(S(N)(=O)=O)cc4)cc(C)nc32)cc1
? | COCCNC(=O)C(=O)NCC(c1cccnc1)N1CCN(c2ccccc2OC)CC1 (stereo not drawn)
1.4% | COc1cccc(NC(=O)C2CCN(S(=O)(=O)c3c(C)noc3C)CC2)c1
-3.6% | Cc1cccc(Cc2c(C)nc3nc(SCC(=O)NC4CCCCC4)nn3c2C)c1
28.2% | O=C(NCCCc1nc2ccccc2n1Cc1ccc(Cl)cc1)c1ccco1
-2.0% | COc1ccc(OC)c(CNC(=O)C2CCN(S(=O)(=O)c3ccc4[nH]c(=O)oc4c3)CC2)c1
26.3% | Clc1cccc(CNc2cc(-c3ccccc3)nc3nncn23)c1

(listing goes on)
miR-21 FLuc | Molecule
6.1% | CCN(CC)c1ccc(NC(=O)CN2C(=O)c3cccnc3Oc3ccc(Cl)cc32)c(C)c1
-0.5% | CN(C)CCNC(=O)CN1C(=O)COc2ccc(S(=O)(=O)N3CCCC3)cc21
-30.5% | CCN1CCc2c(sc(NC(=O)c3ccc4ccccc4c3)c2C(N)=O)C1
18.1% | Cc1cc(C)c(NC(=O)C(=O)NCCc2csc(-c3ccc(F)cc3)n2)c(C)c1
0.2% | COc1ccc(CCNC(=O)Cn2c(=O)nc(-c3ccccc3)c3ccccc32)cc1OC
-0.6% | COc1cccc(C(=O)Nc2ccccc2OCc2cc(=O)n3ccccc3n2)c1
-72.8% | CNC(=O)c1ccc2nc(CCc3ccccc3)oc2c1
5.9% | Cc1ccc(CCNC(=O)c2ccc3c(c2)N(Cc2cccc(Cl)c2)C(=O)c2ccccc2S3(=O)=O)cc1
-1.2% | COc1ccc(-n2nc(C(=O)Nc3cccc(C)n3)c3c4ccccc4n(C)c3c2=O)cc1
-1.5% | COc1ccc(C2CC(=O)c3cnc4c(-c5ccc(F)cc5)c(C)nn4c3C2)cc1OC (stereo not drawn)
3.9% | Cc1ccc(C)c(CN2C(=O)c3ccccc3S(=O)(=O)c3ccc(C(=O)Nc4cc(F)ccc4F)cc32)c1
12.9% | CCC(CC)c1nn2c(=O)cc(COc3ccc(NC(=O)c4ccccc4C)cc3)nc2s1
5.7% | COc1ccc(Br)cc1CNC(=O)CN1C(=O)CCCc2ccccc21
16.4% | Cc1cccc(N2CCN(C3=C(c4ccccc4)C(=O)c4ccccc43)CC2)c1C
? | CC1CCCN(CCCNC(=O)c2ccc3c(c2)N(Cc2ccc(Cl)cc2)C(=O)c2ccccc2S3(=O)=O)C1 (stereo not drawn)
-0.4% | Cc1ccc(C)c(NC(=O)CSc2c(C)cnc3c2c(=O)n(C)c(=O)n3C)c1
? | Cc1cc(C)cc(NC(=O)C2CCN(C(=O)c3cnn(-c4ccccc4)c3-n3cccc3)CC2)c1
17.5% | CCn1nc(C)c2c(-c3ccccc3)cc(=O)n(C(C)C(=O)Nc3cccc(F)c3)c21 (stereo not drawn)
-0.8% | COC(=O)c1ccc(Cl)cc1NC(=O)N(Cc1ccc(C)o1)C1CCN(C(C)=O)CC1
25.4% | CC1=C(C(=O)Nc2ccc(Cl)cc2)C(c2ccccc2C)n2ncc(C(=O)Nc3ccc(C)cc3)c2N1 (stereo not drawn)
9.4% | O=C(Nc1ccc2oc(-c3cccnc3)nc2c1)c1ccc(-c2cccc(Cl)c2)o1
19.5% | CCN(CC)CCCNc1sc(S(=O)(=O)c2ccccc2)nc1S(=O)(=O)c1ccc(Cl)cc1
-7.8% | Cc1ccccc1OCC(=O)Nc1ccc2nc(SCc3ccccc3)sc2c1
-11.8% | CCc1ccc2nc(N(Cc3cccnc3)C(=O)Cc3ccccc3)sc2c1
-22.5% | Fc1ccc(NCc2cccn2-c2nnc(N3CCOCC3)s2)cc1

Reprinted from the part before: 7 entries, followed by the next part.
miR-21 FLuc | Molecule
-0.8% | COC(=O)c1ccc(Cl)cc1NC(=O)N(Cc1ccc(C)o1)C1CCN(C(C)=O)CC1
25.4% | CC1=C(C(=O)Nc2ccc(Cl)cc2)C(c2ccccc2C)n2ncc(C(=O)Nc3ccc(C)cc3)c2N1 (stereo not drawn)
9.4% | O=C(Nc1ccc2oc(-c3cccnc3)nc2c1)c1ccc(-c2cccc(Cl)c2)o1
19.5% | CCN(CC)CCCNc1sc(S(=O)(=O)c2ccccc2)nc1S(=O)(=O)c1ccc(Cl)cc1
-7.8% | Cc1ccccc1OCC(=O)Nc1ccc2nc(SCc3ccccc3)sc2c1
-11.8% | CCc1ccc2nc(N(Cc3cccnc3)C(=O)Cc3ccccc3)sc2c1
-22.5% | Fc1ccc(NCc2cccn2-c2nnc(N3CCOCC3)s2)cc1
6.7% | O=C(CCn1ccc2cc(S(=O)(=O)N3CCCC3)ccc21)NCc1ccccc1Br
2.7% | CCOC(=O)c1c(S(=O)(=O)N2CCCC(C(=O)NCc3cccc(OC)c3)C2)c(C)n(C)c1C (stereo not drawn)
-0.9% | COc1cc(Cl)c(C)cc1NC(=O)c1cn(C2CCCC2)c(=O)c2c1c1ccccc1n2C
8.2% | COc1cc(CN(C(=O)c2cccc(Cl)c2)c2ccccn2)cc(OC)c1OC
-6.9% | COc1ccc(Cn2c(=O)c3oc4ccccc4c3n(Cc3ccc(Cl)cc3)c2=O)cc1
-3.6% | CN(C(=O)CSc1nnc(-c2ccc([N+](=O)[O-])cc2)o1)C1CCCCC1
-2.5% | CCOCCc1nnc(NC(=O)C(=O)c2cc(C)n(-c3ccc(C)c(C)c3)c2C)s1
-6.6% | Cc1ccc(NC(=O)Cn2c(=O)n(-c3ccccc3)c(=O)c3ccc(C(=O)NCc4ccc5c(c4)OCO5)cc32)c(C)c1
? | CCOc1ccc(C(=O)Nc2ccc3nc(SCC(=O)N(C)c4ccccc4)sc3c2)cc1
0.6% | CCOc1ccc(CCNC(=O)c2nnc(Cc3ccc(Cl)cc3Cl)o2)cc1OCC

Screening results as filed in PubChem BioAssay.

The list is partial (hit frequency here may not be typical).
